Screening data as filed in PubChem BioAssay.
miR-21 reporter: raises the signal of a miR-21 reporter | HeLa miR-21 FLuc reporter, luciferase, 48 h | Potency, µM (doses to about 38.3 µM), without a hit: at the highest dose reporter change, positive = more light | 340,000 tested, under 10 active | AID 2288; active = well fitted rising curve with a large enough effect; inconclusive = small, poorly fitted or top-dose-only effect; inactive = no such curve, though single readings can be large or run the other way;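 further: % of control where 0% means no effect; miR-21 action dims this reporter so a rising signal means less miR-21 action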
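Compounds were titrated across several concentrations (up to approximately 40 uM) and incubated 48 hours with HeLa miR-21-FLuc reporter cells (miR-21 target sequence downstream of FLuc, endogenous miR-21). Readout was firefly luciferase luminescence after lytic detection reagent.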
* hit, by the source's call; u = inconclusive. The list is partial, so the mix of outcomes need not match the whole.

smiles,miR-21 reporter
COc1ccc(Oc2c(C(F)(F)F)oc3c(CN4CCCC(C)C4)c(O)ccc3c2=O)cc1 (centres undefined),-7%
COc1ccc(CC(=O)NCC(c2cccs2)S(=O)(=O)c2ccc(C)cc2)cc1 (centres undefined),-5%
CN(C(=O)CSc1nc2ccc(NC(=O)c3ccccc3F)cc2s1)c1ccccc1,-13%
COc1ccc2c(C)c(CCC(=O)NCCc3ccc(OC)c(OC)c3)c(=O)oc2c1,-9%
Cc1ccc(Nc2ccc(N3CCN(C(=O)c4ccc([N+](=O)[O-])cc4Cl)CC3)nn2)cc1,25%
Cc1c(C(=O)Nc2ccc(Br)cc2F)oc2ccc(S(=O)(=O)N3CCCCC3)cc12,0%
COc1cccc(CNC(=O)Cn2nc(C)n3c(cc4cc(C)ccc43)c2=O)c1OC,-8%
CCOC(=O)c1ccc(NC(=O)c2cn(-c3ccccc3)nc2-c2ccc(Br)cc2)cc1,-1%
CCOc1cccc2cc(-c3cn4c(n3)sc3cc(C)ccc34)c(=O)oc12,-3%
CC(=O)Nc1ccc(C(=O)CSc2nnc3cc(C)c4ccccc4n23)cc1,-6%

The results go on:
smiles,miR-21 reporter
COc1ccc(NC(=O)c2c(C)oc3ccc(O)c(CN4CCN(Cc5ccccc5)CC4)c23)cc1Cl,u
COc1ccc(NC(=O)CSc2nc3nc(C)c(Cc4ccccc4Cl)c(C)n3n2)cc1OC,-6%
CCN(CC)S(=O)(=O)c1nnc(NC(=O)c2ccc(C(C)C)cc2)s1,-30%
CCC(Cc1ccccc1)NC(=O)c1cccc(Nc2nc3ccccc3nc2-n2nc(C)cc2C)c1 (centres undefined),0%
COc1cc(C2SC[C@H]3C(=O)N(c4ccccc4)C(=O)N23)cc(OC)c1OC (some centres undefined),-2%
CCOc1ccccc1NC(=O)C(C)Sc1nc2c(c(=O)[nH]1)CCCC2 (centres undefined),-3%
CCOC(=O)c1c(NC(=O)Cc2coc3ccc(CC)cc23)sc2c1CCC2,2%
CCCCOc1ccccc1NC(=O)Cn1c(-c2cncs2)nc2ccccc21,5%
Cc1ccc(N2CCN(C(=O)c3c4c(nc5ccccc35)C(=O)N(C3CCCCC3)C4)CC2)c(C)c1,-2%
CCCCC(=O)N(c1ccc2oc(C)c(C(C)=O)c2c1)S(=O)(=O)c1ccc(F)cc1C,-1%

Later entries
smiles,miR-21 reporter
Cc1ccc(C)c(CSc2cn(CC(=O)N3CCCCCC3)c3ccccc23)c1,-4%
Cc1cc(C)cc(NC(=O)CSc2nc3sc4c(c3c(=O)[nH]2)CCCC4)c1,0%
Cc1ccccc1C(=O)NCC(c1ccc(N(C)C)cc1)N1CCCC1 (centres undefined),-21%
COc1ccc2c(c1)c1c(c(=O)n(-c3ccc(F)c(Cl)c3)c(=O)n1CC(N)=O)n2C,6%
CCCCOc1ccc(C(=O)NCC(c2ccc(Cl)cc2)N2CCOCC2)cc1 (centres undefined),8%
Cc1cc(C)cc(C(=O)n2nc(C)c(S(=O)(=O)N3CCCCCC3)c2C)c1,-1%
CCn1c(C(=O)NCc2cccc(Br)c2)cc2oc3ccccc3c21,28%
COc1ccc(NC(=O)NCCn2nnc3cc(S(=O)(=O)N(C)C)ccc32)cc1,-3%
CCOc1ccccc1CNC(=O)C1CCN(C(=O)N2CC(CC)Oc3ccc(C)cc32)CC1 (centres undefined),7%
O=C(Cn1nc(-c2ccccc2)c2cnc3ccccc3c21)Nc1ccccc1,-19%

Later entries:
smiles,miR-21 reporter
CCCn1c(=O)c2sccc2n2c(CCCC(=O)Nc3ccccc3F)nnc12,9%
COc1ccc(-c2noc(CSCC(=O)Nc3ccc(C)cc3Br)n2)cc1OC,-2%
COc1cccc(-c2nc(SCC(=O)NCC3CCCO3)c(-c3ccc(F)cc3)[nH]2)c1 (centres undefined),28%
Cc1ccc(C)c(N2CCN(C(=O)c3cccn3-c3nnc(N4CCCCC4)s3)CC2)c1,12%
COc1cccc(CNC(=O)c2ccc3c(c2)c(C)c(C)n3Cc2ccccc2)c1OC,-14%
CCCOc1ccc(C2c3c(-c4ccccc4O)n[nH]c3C(=O)N2CCc2ccccc2)cc1OCC (centres undefined),16%
Cc1ccc(Cl)cc1N1CCN(C(=O)c2ccc(C)c(-n3c(C)nc4cccnc43)c2)CC1,u
CCOc1ccc(NC(=O)Cn2c(=O)n(Cc3nc(-c4ccccc4)no3)c(=O)c3ccccc32)cc1,9%
COc1ccc(C(=O)CC2(O)C(=O)N(Cc3cccc(C(F)(F)F)c3)c3ccccc32)cc1 (centres undefined),23%
COc1ccc(CNC(=O)C2CCN(S(=O)(=O)c3c(C)noc3/C=C/c3ccccc3F)CC2)cc1,5%

More entries
smiles,miR-21 reporter
Cc1cc(-c2nc3ncccc3o2)ccc1NC(=O)c1ccc(Br)cc1,-4%
Cc1ccc(O)c(-c2ccnc3cc(-c4ccc(Cl)cc4)nn23)c1,2%
CCOc1ccc(NC(=O)CCCc2nnc3n(C)c(=O)c4sccc4n23)cc1,0%
CCOc1cc(-c2nnc(SCC(=O)Nc3ccc(F)c(F)c3)nc2-c2ccc(OC)c(OCC)c2)ccc1OC,0%
COc1ccc(CNC(=O)CCC2N=C3c4ccccc4N=C(SCC(=O)NCCc4ccc(OC)c(OC)c4)N3C2=O)cc1 (centres undefined),3%
COC(=O)c1ccc(Cl)cc1NC(=O)NCc1c(-n2cccc2)sc2c1CCCC2,0%
COc1ccc2nc(NC(=O)c3ccc(S(=O)(=O)N4CCCC(C)C4)cc3)sc2c1 (centres undefined),0%
CC(C)C1C(=O)Nc2ccc(S(=O)(=O)NCc3ccc(Cl)cc3)cc21 (centres undefined),11%
CC(=O)c1ccc(N2CCN(S(=O)(=O)c3cc(-c4noc(C)n4)ccc3C)CC2)cc1,0%
COc1ccc(C(=O)CCC(=O)Nc2ccc(F)cc2F)cc1,-9%

(list continues)
smiles,miR-21 reporter
COc1cc(Cl)c(C)cc1NC(=O)c1ccc(CN2C(=O)CCn3nc(C)cc32)cc1,0%
CCS(=O)(=O)N1CC(=O)N(c2ccc(Cl)cc2)C(C)(C(=O)NC2CCCCC2)C1 (centres undefined),3%
CCOC(=O)Cc1ccc(NC(=O)Nc2cc3c(cc2N2CCCCC2)n(C)c(=O)n3C)cc1,-12%
COc1cccc(N2CC(NC(=O)c3cc(Cl)ccc3OC)CC2=O)c1 (centres undefined),1%
Cc1ccc(NC(=O)Cn2cnc3c(oc4ccccc43)c2=O)cc1,18%
CCOc1ccc(/C=C/c2nc(C#N)c(NC(C)c3ccccc3)o2)cc1 (centres undefined),-7%
Cc1nc(Oc2ccc(F)cc2Cl)c2oc3ccccc3c2n1,7%
CCOc1ccc(C2c3[nH]c4ccccc4c3CCN2C(=O)CCC2CCCC2)cc1 (centres undefined),-5%
CCn1c(=O)c2sccc2n2c(CCC(=O)N3CCN(c4ccc(C(C)=O)cc4)CC3)nnc12,5%
O=C(CSc1oc(-c2ccco2)nc1S(=O)(=O)c1ccc(Cl)cc1)Nc1ccc(F)cc1,-1%

New compounds follow.
smiles,miR-21 reporter
CCC(C(=O)NCc1ccccc1)n1nc(C)c2sc3ccccc3c2c1=O (centres undefined),-23%
COc1ccccc1C(=O)N1c2ccccc2C(C)(c2ccc(Cl)cc2)CC1(C)C (centres undefined),u
COc1ccc(-c2nc3sc(CCNC(=O)C(=O)Nc4cc(C)cc(C)c4)c(C)n3n2)cc1,-9%
COC(=O)c1ccc(N2C(=O)Cc3cc(OC)c(OC)cc3C2c2ccc(F)cc2)cc1 (centres undefined),-3%
CCn1c(=O)sc2cc(NC(=O)c3cccc(OC)c3)ccc21,-20%
CCc1ccccc1NC(=O)C1CCCN(C(=O)c2cnn(-c3ccccc3)c2-n2cccc2)C1 (centres undefined),15%
CCN1C(=O)C(Cc2nc3ccccc3c(=O)n2C)c2cc(C)ccc21 (centres undefined),-13%
CCc1nnc2c(NCc3ccc(F)cc3)nc3ccccc3n12,0%
CCc1ccccc1NS(=O)(=O)c1ccc(NC(=O)N2CCCC2)cc1,-5%
CCOc1ccc(Sc2cc(C(=O)NCCCOC)c3ccccc3n2)cc1,16%

Look-ups from the list.
miR-21 reporter, COC(=O)c1ccc(N2C(=O)Cc3cc(OC)c(OC)cc3C2c2ccc(F)cc2)cc1 (centres undefined) is entered as -3%
miR-21 reporter, CCc1ccccc1NC(=O)C1CCCN(C(=O)c2cnn(-c3ccccc3)c2-n2cccc2)C1 (centres undefined) is entered as 15%
miR-21 reporter, CCc1ccccc1NS(=O)(=O)c1ccc(NC(=O)N2CCCC2)cc1 is entered as -5%

The results go on:
smiles,miR-21 reporter
Cc1c(C(=O)N2CCC(c3nc4ccccc4s3)CC2)oc2ccc(Cl)cc12,-5%
COc1ccc(-n2nc3c(N4CCCC(C(=O)NCCc5ccc(C)cc5)C4)nnc(C)c3c2C)cc1 (centres undefined),22%
Cc1cccc(OC(=O)c2cc(-c3ccc(C)c(C)c3)on2)c1,-4%
COc1ccc(CCNC(=O)c2ccc(Cn3c(=O)c4ccccc4n(Cc4cc(C)ccc4C)c3=O)cc2)cc1OC,-3%
COc1cc(CN(C(=O)c2ccc(C)cc2)c2ccccn2)cc(OC)c1OC,8%
O=C(Nc1cc(Cl)cc(Cl)c1)c1ccc(F)c(S(=O)(=O)N2CCCC2)c1,8%
CC(C)COc1ccc(C(=O)NCC2(N3CCN(C)CC3)CCCCC2)cc1,-16%
CCc1ccc(-n2c(=O)c3c(C)c(C(=O)N(C)C)sc3n(Cc3ccccc3F)c2=O)cc1,4%
CC(=O)N1CCc2cc(Br)cc(S(=O)(=O)NCCc3ccc(Cl)cc3)c21,5%
CCOc1ccccc1C(=O)NCc1ccc2c(c1)CCN2C(=O)c1ccccc1,u

(list continues)
smiles,miR-21 reporter
COc1ccc(CCNC(=O)c2cc3c(-c4ccc(OC)c(OC)c4)nn(C)c3s2)cc1OC,6%
CCN1c2ccccc2-c2nc(SCC(=O)NCc3ccc(C)cc3)ncc2S1(=O)=O,0%
CCOCCCNC(=O)Nc1cc(C(=O)NCc2ccc(C(C)C)cc2)ccc1N1CCCC1,-12%
COc1cc(-c2ccno2)ccc1S(=O)(=O)N1CCN(c2cccc(Cl)c2)CC1,21%
Cc1ccc(N(C)S(=O)(=O)c2ccc3[nH]c4c(c3c2)CCCC4)cc1,21%
CCCN(CCC)C(=O)Cn1c(=O)n(-c2ccc(OC)cc2OC)c(=O)c2c3c(sc21)CCC3,0%
CCOC(=O)c1ccc(NC(=O)CCS(=O)(=O)c2ccc(C)cc2)cc1,4%
COC(=O)c1ccc2c(c1)N(Cc1cc(C)ccc1C)C(=O)c1ccccc1S2,-1%
COc1ccccc1NC(=O)CSc1oc(-c2cccs2)nc1S(=O)(=O)c1ccc(Br)cc1,10%
COc1ccc(N2CCN(S(=O)(=O)c3ccc4c(c3)CC(C)N4C(C)=O)CC2)cc1 (centres undefined),15%

Structural class, the entries above containing two or more sulfur atoms (eight)
smiles,miR-21 reporter
COc1ccc(CC(=O)NCC(c2cccs2)S(=O)(=O)c2ccc(C)cc2)cc1 (centres undefined),-5%
CN(C(=O)CSc1nc2ccc(NC(=O)c3ccccc3F)cc2s1)c1ccccc1,-13%
CCN(CC)S(=O)(=O)c1nnc(NC(=O)c2ccc(C(C)C)cc2)s1,-30%
Cc1cc(C)cc(NC(=O)CSc2nc3sc4c(c3c(=O)[nH]2)CCCC4)c1,0%
COc1ccc2nc(NC(=O)c3ccc(S(=O)(=O)N4CCCC(C)C4)cc3)sc2c1 (centres undefined),0%
O=C(CSc1oc(-c2ccco2)nc1S(=O)(=O)c1ccc(Cl)cc1)Nc1ccc(F)cc1,-1%
CCN1c2ccccc2-c2nc(SCC(=O)NCc3ccc(C)cc3)ncc2S1(=O)=O,0%
COc1ccccc1NC(=O)CSc1oc(-c2cccs2)nc1S(=O)(=O)c1ccc(Br)cc1,10%

Other structures.
smiles,miR-21 reporter
CCc1ccc(NC(=O)c2ccc3c(O)c(S(=O)(=O)c4ccccc4)c(=O)[nH]c3c2)cc1,u
CCN(c1ccc(OC)cc1)S(=O)(=O)c1ccc2[nH]c(=O)ccc2c1,-16%
Cn1c(=O)n(-c2ccc(F)c(Cl)c2)c(=O)c2sc3ccccc3c21,0%
Cc1ccc(NC(=O)c2sc3nc4n(c(=O)c3c2C)CCCCC4)c(Br)c1,1%
Cc1cccc(-n2ncc(C(=O)N3CCC(C)CC3)c2C2CCN(C(=O)OC(C)(C)C)CC2)c1,-1%
COc1ccc(C2c3c(oc4ccc(C)cc4c3=O)C(=O)N2CCCN2CCOCC2)cc1OC (centres undefined),-6%
CCOc1cc(-c2nnc(SCC(=O)NCc3ccccc3)nc2-c2ccc(OC)c(OCC)c2)ccc1OC,u
CCc1cccc(Nc2ncnc3onc(-c4ccc(F)cc4)c23)c1,7%
O=C(NCC(c1ccc2c(c1)OCO2)N1CCN(c2ccccc2)CC1)C(=O)Nc1ccccc1F (centres undefined),-8%
CCC(C)NC(=O)Cn1c(=O)n(-c2ccc(C)c(C)c2)c(=O)c2c(C)c(C(=O)N(CC)CC)sc21 (centres undefined),3%

Carrying on:
smiles,miR-21 reporter
COc1cc(NC(=O)c2ccc(NC(=O)N3CCSc4ncccc43)cc2)cc(OC)c1,-47%
COc1ccc(S(=O)(=O)n2nc(C)c(S(=O)(=O)N3CCCCCC3)c2C)cc1,-2%
Cc1cccc(NC(=O)CSc2nc3c(oc4ccccc43)c(=O)n2C(C)C)c1,6%
COc1ccc(CCNC(=O)c2ccc3c(c2)N=C(C)c2ccccc2S3)cc1OC,21%
